# Bioassay records as filed in PubChem BioAssay.
# Cruzain noTriton – cruzain (T. cruzi) inhibition without detergent; P25779; purified cruzain, Z-FR-AMC fluorescence, no detergent; Potency, µM, inactives show max response, negative = inhibition, hits mostly inhibitors; 200,000 tested, 2.3% active; AID 1476; active = well fitted curve in the direction sought with a large enough effect; inconclusive = small, poorly fitted or top-dose-only effect, or another doubt; inactive = no such curve, though single readings can be large; an effect the other way counts as inactive or inconclusive;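 also: plate controls were enzyme without inhibitor for no effect and buffer without enzyme for full effect; nearly all actives have a fitted effect of over 40% in size; top concentration of the series not given in the record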
# Target sequence (P25779 123-467 limits assumed): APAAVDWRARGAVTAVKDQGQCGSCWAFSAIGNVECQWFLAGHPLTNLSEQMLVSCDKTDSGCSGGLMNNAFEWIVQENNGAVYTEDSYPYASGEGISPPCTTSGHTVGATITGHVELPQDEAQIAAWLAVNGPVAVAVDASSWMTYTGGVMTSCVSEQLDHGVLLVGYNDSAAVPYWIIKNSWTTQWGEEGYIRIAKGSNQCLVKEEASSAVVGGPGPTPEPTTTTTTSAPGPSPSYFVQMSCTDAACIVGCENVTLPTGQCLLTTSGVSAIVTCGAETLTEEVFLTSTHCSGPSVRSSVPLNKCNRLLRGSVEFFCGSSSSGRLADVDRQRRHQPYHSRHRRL
#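 Purified cruzain at 1.5 nM, pre-incubated 15 min with compound at room temperature in 100 mM sodium acetate pH 5.5, 5 mM DTT, 0.00005% Triton X-100. Reaction started with 2 uM Z-FR-AMC; AMC fluorescence increase over 60 s gives rate.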
# Cruzain inh Det – blocks cruzain activity in presence of Triton detergent; purified cruzain, Z-FR-AMC fluorescence, 0.01% Triton; P25779; 200,000 tested, 0.43% active; AID 1478; Potency, µM, for inactives: max response, negative = inhibition, most hits filed as inhibitors; active = well fitted curve in the direction sought with a large enough effect; inconclusive = small, poorly fitted or top-dose-only effect, or another doubt; inactive = no such curve, though single readings can be large; an effect the other way counts as inactive or inconclusive;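 also: plate controls were neutral wells for no effect and buffer without enzyme for full effect; nearly all actives have a fitted effect of over 40% in size; top concentration of the series not given in the record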
#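 Sodium acetate buffer (100 mM, pH 5.5) containing 5 mM DTT and 0.01% Triton X-100 hosted 1.5 nM cruzain and test compound for 15 min at room temperature. Cleavage of 2 uM Z-FR-AMC was then tracked by fluorescence.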
# 2A StopGo – FMDV 2A StopGo reporter, luciferase signal; human cells with a luciferase reporter of 2A StopGo recoding; control for the full effect not named in the record; Potency, µM (doses to about 57.9 µM), for the others: at the highest dose signal change, negative = less light; 410,000 tested, 1.2% active; AID 1159524; active = well fitted falling curve with a large enough effect; inconclusive = small, poorly fitted or top-dose-only effect; inactive = no such curve, though single readings can be large or run the other way; tested in HEK293T cells; also: % is scaled to controls: 0 for no effect and ±100 for the full control effect; nearly all actives have a fitted effect of over 45% in size; luciferase light after 4 h
# SARS PLpro yeast – inhibitors of SARS-CoV papain-like protease in yeast; S. cerevisiae expressing SARS-CoV PLpro, growth rescue; control for the full effect not named in the record; Potency, µM (top dose mostly 32.9 µM), inactives show at the highest dose activity, positive = growth rescue; 330,000 tested, 0.19% active; AID 485353; also: 0% is about no effect; nearly all actives have a fitted effect of over 55% in size; growth read by luminescence after 48 h
# NS1 inh – inhibitors of influenza NS1 protein function; S. cerevisiae slowed by influenza A NS1, growth recovery by OD600; Potency, µM (series often up to 46.1 µM), inactives show at the top dose activity, positive = more growth; 270,000 tested, 0.4% active; also: actives are rising curves; nearly all actives have a fitted effect of over 50% in size
#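 Read-out: OD600 growth recovery of NS1-expressing budding yeast. Cells grown overnight at 30C in -URA glucose medium, washed, resuspended and diluted 1:100 in 2% galactose assay medium, pH 6.0. Same strain lacking NS1 served as positive control.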
# LASV entry inh – Lassa virus entry inhibition; Lassa virus pseudotype entry inhibition, cell reporter; control for the full effect not named in the record; Potency, µM (titrated, usually from 37.9 µM), for inactives: top-dose activity change, negative = inhibition, usual class: inhibitors; 300,000 tested, 1.2% active; AID 540256; active means well fitted inhibition curve with a large enough effect; inconclusive means small, poorly fitted or top-dose-only effect, or effect the other way; inactive means flat fitted curve, though single readings scatter; tested in HEK293 cells; also: % is scaled to controls: 0 for no effect and ±100 for the full control effect; nearly all actives have a fitted effect of over 50% in size; luciferase read-out
# RE007 growth inh – less growth of the S. pombe RE007 Vpr strain | 360,000 tested, 0.21% active | S. pombe RE007 Vpr strain, BacTiter-Glo ATP luminescence, 24 h; control for the full effect not named in the record | Potency, µM (highest dose often 92.2 µM), inactives show top-dose activity change, negative = less growth; active = well fitted falling curve with a large enough effect; inconclusive = small, poorly fitted or top-dose-only effect; inactive = no such curve, though single readings can be large or run the other way;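 also: % is scaled to controls: 0 for no effect and ±100 for the full control effect; nearly all actives have a fitted effect of over 50% in size; the assay follows cell death caused by Vpr and the record does not say whether a fall means rescue or toxicity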
#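 Fission yeast RE007 carrying one integrated HIV-1 vpr copy, seeded at OD 0.01 in PMG+AL medium with 23 nL pinned compound. Grown 24 h at 30 degrees; viability read by BacTiter-Glo luminescence after 5 min.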
# MARV entry inh – Marburg virus entry inhibition. Marburg virus pseudotyped entry inhibition, cell reporter; control for the full effect not named in the record; about a third of the inactives were read at about 46 µM. AID 540276. Potency, µM (series often up to 37.8 µM), for the others: at the top dose activity change, negative = inhibition, most hits filed as inhibitors. 300,000 tested, 1.8% active; active = well fitted inhibition curve with a large enough effect; inconclusive = small, poorly fitted or top-dose-only effect, or effect the other way; inactive = flat fitted curve, though single readings scatter; tested in HEK293 cells; about a fifth of its hits are not listed in these tables; also: % is scaled to controls: 0 for no effect and ±100 for the full control effect; luciferase read-out
# * marks the source's active call; other numbers are inactive results; ? = inconclusive; / = not tested or not shown; & = joins results of further samples; [ ] = dose if it differs, or a comment. Unless noted, calls follow the shape of the dose curve; as a rule, active means well fitted rising curve with a large enough effect; inconclusive means small, poorly fitted or top-dose-only effect; inactive means no such curve, though single readings can be large or run the other way. Potency is read from the fitted curve at half-maximal effect.
SMILES,Cruzain noTriton,Cruzain inh Det,2A StopGo,SARS PLpro yeast,NS1 inh,LASV entry inh,RE007 growth inh,MARV entry inh
CCNc1nc(-c2ccc(OC(F)F)cc2)c(C)s1,/,/,8%,3%,/,?,-2%,?
Cc1ccc(C)c(S(=O)(=O)N2CCN(C(=O)c3ccc(-n4cncn4)c([N+](=O)[O-])c3)CC2)c1,/,/,-24%,9%,/,23%,7%,-2%
Cc1ccc(C(=O)OCC(=O)Nc2sc3c(c2C#N)CCCCC3)cc1NC(=O)c1ccco1,?,3.0%,-8%,-3%,6%,14%,-12%,4%&4%
COc1ccc(NC(=O)CN2C(=O)COc3ccc(S(=O)(=O)N4CCCCC4)cc32)cc1OC,-2%,-0.8%,-9%&-5%,/,-7%,14%&-24%[46.1 µM],5%,-1%&-1%[46.1 µM]
c1ccc(OCc2nnc3n2CCCCC3)cc1,/,/,-3%,1%,4%,8%[46.1 µM],-13%,2%[46.1 µM]
COc1ccc(-c2noc(-c3ccc(N4CCN(C)CC4)c([N+](=O)[O-])c3)n2)cc1,?,-2.3%,50%[activator],/,/,22%[46.1 µM],/,-1%[46.1 µM]
Cc1ccc(NC(=O)c2ccc(N3CCOCC3)c([N+](=O)[O-])c2)cc1S(=O)(=O)N1CCOCC1,?,-8.7%,13µM*,-1%,12%,-2%,-13%,?
CCOC(=O)N1CCN(C(=O)Cn2cnc3ccccc3c2=O)CC1,/,/,-15%,1%,2%,-8%,-2%,-3%[46.1 µM]
CCCc1nnc(NC(=O)c2nc(S(=O)(=O)Cc3ccc(C)cc3)ncc2Cl)s1,4%,-1.7%,35µM*,1%,10%,?,-12%,-2%&-2%[46.1 µM]
Cc1cc(OC(=O)N(C)C)nc2c1c(C)nn2C,/,/,-14%,-1%,7%,1%[46.1 µM],-12%,-9%[46.1 µM]
CCOC(=O)C1=C(C)C2C3C(=O)N(c4cc(C)ccc4C)C(=O)C3C1(C)C1C(=O)N(c3cc(C)ccc3C)C(=O)C21 (stereo not given),?,-7.3%,-20%,-4%,7%,-18%,4%,-17%
Cc1nc2c(C)cccn2c(=O)c1NC(=O)c1ccc2c(c1)OCO2,/,/,-27%,8%,/,28%[46.1 µM],1%,-29%
CCC(=O)Nc1ccc(NC(=O)c2ccccc2)nc1,/,/,26%,-1%,0%,/,-11%,/
COc1ccc(C(=O)N2CCCC(c3nc(-c4cccs4)no3)C2)cc1OC (stereo not given),22%,1.3%,-6%,2%,-31%,-3%,8%,-23%
COc1ccccc1/C=C/C=N/n1c(-c2ccc(Cl)cc2Cl)n[nH]c1=S,/,/,0%,-1%,11%,/,12%,/
O=C(Nc1sc2c(c1C(=O)O)CCCC2)c1ccccc1Cl,/,/,-5%,-9%,-33%,?,?,?
O=C(NC1CCCCNC1=O)c1ccc(Cl)cc1 (stereo not given),-3%,2.9%,30%,-2%,-9%,3%,-6%,-1%
COc1ccccc1-n1cnc2cc(C(=O)NCc3ccco3)ccc21,-3%,-1.4%,4%,-1%,-1%,6%,-2%,-8%
O=C(NC(=S)Nc1ccc(S(=O)(=O)Nc2nccs2)cc1)c1cccc(F)c1,0%,7.4%,57%[activator],2%,9%,-2%,2%,-1%
O=C(NNc1cccc([N+](=O)[O-])c1)/C(=C\c1cccnc1)NC(=O)c1ccccc1,/,/,-3%,-1%,-66%,/,-1%,/
CN(C(=O)NC1CC(=O)N(c2ccc3c(c2)OCCO3)C1)c1ccccc1 (stereo not given),/,/,-16%,-1%,/,-2%[46.1 µM],-4%,?
O=C(Nc1cccc(O)c1)C1CC(c2ccc(Cl)cc2)=NO1 (stereo not given),/,/,4%,9%,0%,10%[46.1 µM],17%,2%[46.1 µM]
CCN(CCO)c1ncnc2c1sc1nc(C(C)C)c3c(c12)CC(C)(C)OC3,?,-0.9%,5%,1%,24%,-8%,10%,24%
CCn1cc(C(=O)O)c(=O)c2cc(F)c(N3CCN(C(=S)NC(=O)c4ccccc4Cl)CC3)cc21,/,/,-26%,2%,5%,/,-6%,/
Cc1c(C(=O)N2CCC(C)CC2)c(S(=O)(=O)NCc2ccc(Cl)cc2)c(C)n1C,21%,-3.5%,58%[activator],/,/,4%[46.1 µM],/,/
NNC(=O)C1CC1c1ccc(Cl)cc1 (stereo not given),5%,-1.8%,-17%,7%,2%,2.6µM*,1%,0%
COc1ccc([N+](=O)[O-])cc1NC(=O)CCN1CCN(c2ccccc2)CC1,/,/,5%,-7%,/,-19%,-14%,?
Cc1cc(C)c(OCC(=O)NCC(C)(C)N2CCOCC2)c(C)c1,/,/,-9%,2%,/,?,23%,-23%[46.1 µM]
O=C(CC1CCCCC1)c1c(O)c2ccccc2oc1=O,-3%,1.2%,8%,-21%,-30%,0%,-8%,6%
O=C1c2ccccc2C(=O)N1OCc1c(F)cccc1Cl,/,/,31%[activator],0%,-4%,-1%[46.1 µM],6%,20%[46.1 µM]
Cc1ccccc1CN1c2ccccc2-c2nc(SCC(=O)c3ccc(Cl)cc3)ncc2S1(=O)=O,-15%,1.1%,2%,/,/,18%[46.1 µM],/,/
CCCC1=NN(C(=O)Cc2ccc(OC)cc2)C(O)(C(F)(F)F)C1 (stereo not given),9%,-3.9%,-12%,-21%,-1%,5%,3%,27%
CN1CCN(Cc2cc(=O)oc3cc4c(cc23)CCC4)CC1,-1%,-4.3%,11%,7%,-5%,0%,-9%,?
O=C(c1ccccc1NS(=O)(=O)c1ccccc1)N1CCCCCC1,/,/,63%[activator],5%,21%,0%,7%,-2%
COc1ccc(C(=O)n2nc(N)c3cc4ccc(C)cc4nc32)cc1OC,-15%,-0.3%,-9%,/,/,-9%[46.1 µM],/,3%[46.1 µM]
COP(=O)(OC)Oc1ccc(C(O)C(Cl)(Cl)Cl)cc1 (stereo not given),/,/,-6%,-2%,-1%,-22%,13%,2%
CCOc1cc(/C=N/NC(=O)c2cccnc2)ccc1OCC(=O)N(C)C,/,/,-4%,0%,/,/,3%,-2%[46.1 µM]
O=C(NC1CCN(Cc2ccccc2)CC1)c1ccc(N2CC3CC(C2)c2cccc(=O)n2C3)c([N+](=O)[O-])c1 (stereo not given),/,/,-5%,2%,/,-19%,-9%,?
CCOc1ccc(/C=C2\SC(=S)N(Nc3ccccc3)C2=O)cc1OC,?,6.3µM*,41%[activator],1%,12%,10%,-21%,18%
COc1ccc(OCC(=O)NNC(=S)NC(=O)C2CC2)cc1,/,/,14%,0%,-55%,?,7%,4%[46.1 µM]
COc1ccccc1NS(=O)(=O)c1cccc(C(=O)NCC(c2ccccc2OC)N2CCCC2)c1 (stereo not given),/,/,-20%,-5%,/,20%,-17%,-26%
COc1ccc(Cl)cc1NC(=S)NCCC(c1ccccc1)c1ccccc1,?,-1.4%,10%,29%,18%,-1%,-14%,-19%
Cc1cccc(NS(=O)(=O)c2ccc(-c3ccc(=O)[nH]n3)o2)c1,/,/,13%,27%,5%,/,19%,/
CCCCN(CCCC)CC(O)Cn1cc(/C=C/C(=O)c2ccccc2)c2ccccc21 (stereo not given),-1%,-7.2%,-15%,/,/,?,/,?
CCS(=O)(=O)c1nc2ccccc2n1CC(=O)Nc1ccccc1C(=O)OC,5%,-1.7%,-26%,/,/,1%[46.1 µM],/,2%[46.1 µM]
Cc1ccc2[nH]cc(C(c3ccccc3)c3ccc(Cl)s3)c2c1 (stereo not given),-7%,-0.9%,?,/,/,26%[46.1 µM],/,?
CC(C)Oc1ccc(S(=O)(=O)N2CCOCC2)cc1NC(=O)C1CCC1,/,/,0%,-2%,/,-6%,-11%,-8%
COc1ccc(/C=C/C(=O)N2CCC(C(N)=O)CC2)cc1S(=O)(=O)N1CCOCC1,/,/,22%,2%,23%,?,-9%,-2%
CC1=C(C(=O)Nc2ccc(C)cc2C)C(c2ccccc2)n2ncc(C(=O)Nc3ccccc3)c2N1 (stereo not given),?,-6.9%,0%,/,/,?,/,?
CC(C)c1ccc(NC(=O)c2cc3c(=O)n(C)c4ccccc4c3n2C)cc1,/,/,?,-5%,3%,-10%,-14%,?

# Next records.
SMILES,Cruzain noTriton,Cruzain inh Det,2A StopGo,SARS PLpro yeast,NS1 inh,LASV entry inh,RE007 growth inh,MARV entry inh
C[C@@H](C(=O)CC(=O)OC(C)(C)C)[C@@H](O)c1c(F)cccc1Cl,/,/,4%,5%,12%,/,-4%,/
C=CCN1CCN(C(=O)CCCc2ccccc2)CC1,/,/,14µM*,-3%,-8%,?,11%,2.5µM*
Cc1cc(C)cc(CSCC(=O)N/N=C/c2ccc(OCC(=O)NCc3ccco3)cc2)c1,12%,-1.3%,?,-3%,-4%,-6%,7%,?
O=C(Nc1nccs1)c1ccc(Br)cc1,/,/,34%[activator],14%,-21%,/,-14%,/
O=C(Nc1ccc(O)c(-c2nc3ccccc3o2)c1)C1(c2ccc(Cl)cc2)CCCC1,5µM*,6.9%,-30%,-4%,-13%,8%,5%,?
O=C(Nc1cc([N+](=O)[O-])ccc1F)C1CC1,-1%,-1.8%,-13%,1%,-17%,1%,-10%,14%
NCCNc1cc(N2CCCC2)ccc1[N+](=O)[O-],/,/,-20%,5%,/,-21%[46.1 µM],6%,?
Cc1ccc(NC(=O)Cc2nnc(SCC(=O)NC3CCCC3)n2C)cc1C,/,/,9%,4%,6%,14%[46.1 µM],-4%,10%[46.1 µM]
COc1ccc(C(=O)Nc2cccc(C(=O)NCc3ccco3)c2)cc1,/,/,17%,-1%,-2%,?,-8%,0%
CN(C)/C=C/c1c([N+](=O)[O-])c2ccc(O)cc2n1-c1ccccc1,/,/,-28%,3%,3%,-14%,-21%,1%[46.1 µM]
COc1ccc(S(=O)(=O)Nc2nc3c(s2)C(=O)CC(C)(C)C3)cc1,/,/,-5%,0%,?,5%[46.1 µM],6%,6%[46.1 µM]
O=[N+]([O-])c1ccc(-n2cc(-c3ccccc3)nn2)cc1,/,/,64%[activator],7%,2%,/,1%,/
Cc1cc2c(c(=O)n1Cc1cccnc1)C(c1cccs1)C(C#N)=C(N)O2 (stereo not given),1%,0.9%,-23%,14%,13%,-13%,-7%,22%[46.1 µM]
